Source: PubChem BioAssay (National Center for Advancing Translational Sciences (NCATS))
VDR inhibitor = vitamin D3 receptor (human) inhibition; P11473; VDR-SRC2-3 peptide fluorescence polarization, 2 h; Potency, µM, for inactives: max response, negative = inhibition, actives largely listed as inhibitors; 400,000 compounds, 0.93% hits; AID 504847; active means well fitted inhibition curve with a large enough effect; inconclusive means small, poorly fitted or top-dose-only effect, or another doubt; inactive means no such curve, though single readings can be large or run the other way; further: series mostly up to about 120 µM
Target sequence (P11473 whole entry, looked up): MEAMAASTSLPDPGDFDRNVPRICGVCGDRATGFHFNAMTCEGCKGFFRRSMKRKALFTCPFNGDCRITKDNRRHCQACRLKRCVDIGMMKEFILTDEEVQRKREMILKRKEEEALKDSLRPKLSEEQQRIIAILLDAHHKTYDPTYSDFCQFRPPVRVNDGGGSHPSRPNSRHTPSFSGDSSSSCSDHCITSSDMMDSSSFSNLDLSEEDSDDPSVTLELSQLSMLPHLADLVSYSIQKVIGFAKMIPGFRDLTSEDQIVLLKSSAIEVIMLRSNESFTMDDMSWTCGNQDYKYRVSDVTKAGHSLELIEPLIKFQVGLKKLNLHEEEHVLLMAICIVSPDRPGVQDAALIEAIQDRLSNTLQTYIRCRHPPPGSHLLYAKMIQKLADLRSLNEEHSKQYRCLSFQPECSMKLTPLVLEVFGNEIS
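Compounds are added to VDR with labelled SRC2-3 coactivator peptide and held 2 h at room temperature. Inhibition of the VDR–peptide interaction is then read as a change in fluorescence polarization.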
Numbers without * were called inactive; ? = inconclusive; & = joins results of further samples; [ ] = another dose, or the depositor's remark. On the % scale 0 is the no-effect control and ±100 the full control effect; potency means the concentration at half of the fitted maximal effect. These rows are one share of the data, so the mix of outcomes need not match the whole.

item | smiles | VDR inhibitor
1 | COc1ccc(/C=C2/SC(=S)N(CCCC(=O)N3CCN(C)CC3)C2=O)cc1 | 2%
2 | Cc1ccc(C)c(-c2nnc(NC(=O)CCS(=O)(=O)c3ccccc3)o2)c1 | -6%
3 | O=C(Nc1cccn(Cc2ccc(F)cc2)c1=O)NC1CCCCC1 | -10%
4 | Cc1cccc(N(C)C(=O)c2cc(S(=O)(=O)N3CCCC3)cn2C)c1 | 0%&10%
5 | CCCCCC(O)(c1ccccc1)C(CN1CCOCC1)c1ccccc1 (centres undefined) | 17%
6 | Cn1ccc2cc(S(=O)(=O)N3CCCC(C(=O)NCc4ccccc4F)C3)ccc21 (centres undefined) | -7%
7 | Cc1noc(NS(=O)(=O)c2ccc(NC(=O)c3ccccc3NS(=O)(=O)c3ccc(F)c(F)c3)cc2)c1C | -15%
8 | COc1cccc(/C=N/c2nc3ccccc3[nH]2)c1O | -5%
9 | CC(C)/C=N\NC(=O)CCCCC(=O)N/N=C/C(C)C | 10%
10 | CSc1nsc(SCC(=O)Nc2ccc(Br)cn2)n1 | -1%
11 | CC(=O)NC(CC(=O)OCC(=O)NCCc1ccccc1)c1ccccc1 (centres undefined) | -2%
12 | C=CCC1C=C(Cc2ccccc2)CC(CC=C)N1 (centres undefined) | -7%
13 | CC1CCCN(C(=O)COC(=O)C2CCN(S(=O)(=O)c3ccc4c(c3)OCCO4)CC2)C1 (centres undefined) | 0%
14 | COc1ccc(-c2cnc(C)o2)cc1S(=O)(=O)Nc1c(C)cc(C)cc1C | 6%
15 | O=C(COCc1cc(-c2ccc3c(c2)OCO3)on1)Nc1cccnc1 | 5%
16 | Cc1sc2nc(C3CC3)nc(N3CCN(C(=O)c4ccc(F)cc4)CC3)c2c1C | -7%
17 | Cc1ccc(NC(=O)CCn2cccc2)cc1C | 13%
18 | COc1cccc(N2C(=O)CC(c3c[nH]c4ccccc34)C2=O)c1 (centres undefined) | 0%
19 | CCN(CC)CCN(C(=O)c1ccc(N2C(=O)CCC2=O)cc1)c1nc2cc3c(cc2s1)OCCO3 | 1%
20 | COc1ccc(N2CCN(C(=O)CCc3c[nH]c4ccccc34)CC2)cc1 | 6%
21 | CCn1cc(CNC(=O)c2cc(-c3cc(OC)ccc3OC)nc3ccccc23)c(C)n1 | 0%
22 | COc1cc(/C=C/C(=O)N2CCC=CC2=O)cc(OC)c1OC | ?
23 | CC1(C)N=C(N)N=C(N)N1c1ccc(F)cc1F | -8%
24 | CCCCN1CC[C@H]2C=CC[C@@H](C(=O)NCCc3ccccc3)[C@H]2C1=O | 0%
25 | Cc1cc(C(C)(C)C)cc(S(=O)(=O)NCCO)c1C | -9%
26 | CCN(CC)S(=O)(=O)c1ccc(/C(O)=C(\C#N)c2nc3ccccc3n2C)cc1 | -19%
27 | Cc1ccc(C(=O)Nc2ccc(Nc3ccccc3)cc2)cc1Br | 1%
28 | COc1ccc(NC(=S)NNS(=O)(=O)c2ccc3ccccc3c2)c(OC)c1 | ?
29 | CCOC(=O)/C(=C\C=C\c1ccccc1)NC(=O)c1ccccc1 | -14%
30 | Cc1ccc(O)c(C2=NNC(O)(C(F)(F)F)C2)c1 (centres undefined) | 14%
31 | Cc1cc([N+](=O)[O-])nn1CC(=O)NNC(=S)Nc1ccc(F)cc1 | -6%
32 | CCOc1ccc(NC(=O)CN(C)C(=O)c2cc(C3CC3)nn2-c2ccccc2)cc1OCC | -4%
33 | CC1(C(=O)O)CCC(C(=O)Nc2ccccc2O)C1(C)C (centres undefined) | -28%
34 | COc1cccc(-c2cc(=O)c3cc(NC(C)=O)ccc3[nH]2)c1 | -13%
35 | CC/C(=C1/C(=O)CC(C)(C)C(C(=O)OC)C1=O)N1CCCC1 (centres undefined) | 2%
36 | CC1CN(S(=O)(=O)c2cccc(-c3cn4ccccc4n3)c2)CC(C)O1 (centres undefined) | 3%
37 | COc1ccc(/C=C/c2nc(C#N)c(N3CCC(C(N)=O)CC3)o2)cc1OC | -5%
38 | O=C(CN1CCOCCOCCOCC1)Nc1ccccc1 | 9%
39 | CCCn1nnc(NC(=O)c2ccc(F)cc2)n1 | 1%
40 | CC(Oc1ccc(Cl)cc1)C(=O)Nc1sccc1C(N)=O (centres undefined) | -23%
41 | N#C/C(=C\c1ccc(F)cc1)c1nc(-c2ccc(-c3ccccc3)cc2)cs1 | -16%
42 | CSc1ccc(CNC(=O)CCc2c(C)nn(-c3ccc(N4CCCC4)nn3)c2C)cc1 | -1%
43 | COCCN(CC1CCCN(C2Cc3ccccc3C2)C1)C(=O)CCSC (centres undefined) | -13%
44 | CCCC(=O)Nc1ccc2nc(C)n(Cc3ccccc3Cl)c(=O)c2c1 | -5%
45 | COc1ccc(C2CC(=O)C(C=NCCCN3CCOCC3)=C(O)C2)cc1 (centres undefined) | 5%
46 | COc1ccc(N2CC(NC(=O)c3ccc(S(=O)(=O)N4CCOCC4)cc3)CC2=O)cc1 (centres undefined) | -6%
47 | Cc1ccc(CNC(=O)CSCc2cccc(F)c2)cc1 | ?
48 | CC(C)CCNC(=O)C1CCN(C(=O)N2CCOc3ccc(Cl)cc32)CC1 | -4%
49 | COc1ccc(C2SCCN2C(=S)Nc2cccc(C(F)(F)F)c2)cc1 (centres undefined) | -3%
50 | Cc1ccc(CNC(=O)c2ccc3c(c2)N(Cc2ccccc2)C(=O)c2ccccc2S3(=O)=O)cc1 | -2%

Brought forward from above: 7 entries, then new ones.
item | smiles | VDR inhibitor
44 | CCCC(=O)Nc1ccc2nc(C)n(Cc3ccccc3Cl)c(=O)c2c1 | -5%
45 | COc1ccc(C2CC(=O)C(C=NCCCN3CCOCC3)=C(O)C2)cc1 (centres undefined) | 5%
46 | COc1ccc(N2CC(NC(=O)c3ccc(S(=O)(=O)N4CCOCC4)cc3)CC2=O)cc1 (centres undefined) | -6%
47 | Cc1ccc(CNC(=O)CSCc2cccc(F)c2)cc1 | ?
48 | CC(C)CCNC(=O)C1CCN(C(=O)N2CCOc3ccc(Cl)cc32)CC1 | -4%
49 | COc1ccc(C2SCCN2C(=S)Nc2cccc(C(F)(F)F)c2)cc1 (centres undefined) | -3%
50 | Cc1ccc(CNC(=O)c2ccc3c(c2)N(Cc2ccccc2)C(=O)c2ccccc2S3(=O)=O)cc1 | -2%
51 | O=C(NCCc1ccccc1)C(NS(=O)(=O)c1cccc2nsnc12)c1ccccc1 (centres undefined) | -13%
52 | O=C(C1=NN[C@@H]2C(=O)N(c3cccc(C(F)(F)F)c3)C(=O)[C@H]12)c1ccc2ccccc2n1 | -1%
53 | Cc1ccc(NC(=O)/C(=C\c2ccccc2)NC(=O)c2ccco2)cc1 | 1%
54 | COc1cccc(NC(=O)CN2CCCCCC2)c1 | 8%
55 | O=C(CNC(=O)c1ccccn1)N/N=C/c1ccc2c(c1)OCO2 | -2%
56 | CCC1=NN(C(=O)c2cccc(Br)c2)C(O)(c2ccc(Br)cc2)C1 (centres undefined) | 59%[activator]
57 | CCn1ncc(/C=C/C(=O)Nc2c(C)nn(Cc3ccc(Cl)cc3Cl)c2C)c1C | -21%
58 | CCCc1cc(=O)oc2cc(OCC(=O)NC3CC(C)(C)NC(C)(C)C3)ccc12 | -12%
59 | COc1ccc(N=C(C)C2=C(O)COC2=O)cc1 | 8%
60 | Cc1cccc(N2CCN(C(=O)CS(=O)(=O)Cc3nc(-c4ccccc4C)oc3C)CC2C)c1 (centres undefined) | 7%
61 | COC(=O)CCC(=O)Nc1ccc(Cl)c(Cl)c1 | -1%
62 | CC1CCN(C2=NC(=O)/C(=C/c3ccc(O)cc3)S2)CC1 | -10%
63 | CCC1=C(OC(=O)c2ccccc2)C(C)(C)C(c2ccccc2)OC1=O (centres undefined) | 9%
64 | Cc1ccc(C)c(Nc2nn3c(=O)c4ccc(C(=O)NCc5cccs5)cc4nc3s2)c1 | 8%
65 | Cc1ccc(S(=O)(=O)N2CCC3(CC2)CC(=O)c2ccccc2O3)cc1 | 11%
66 | C#CCOCCOCCOCCNc1nc(N2CCN(C(=O)CCCCCCCCCCNC(=O)[C@@H](CCC(=O)O)n3cc(CCCCCN)nn3)CC2)nc(N2CCN(C(=O)CCCCCCCCCCNC(=O)[C@H](CO)n3cc(CCCCCN)nn3)CC2)n1 | -1%
67 | O=C1/C(=C/c2cccc(Cl)c2)CSc2sccc21 | -7%
68 | Cc1nnc(-c2cccc(Br)c2)c2cn(-c3ccccc3)nc12 | 2%
69 | CN1CCN(Cc2cccc3ncccc23)CC1CCO (centres undefined) | 12%
70 | C=CCN1CN=C(NS(=O)(=O)c2ccc(NC(C)=O)cc2)NC1 | -1%
71 | COc1ccc(-c2csc(C3=C(O)CN(Cc4ccc(Cl)cc4)C3=N)n2)cc1OC | 4%
72 | Cc1nc(SCC(=O)c2ccc(Cl)s2)c2oc3ccccc3c2n1 | ?
73 | CN(CCc1ccccc1)C(=O)c1ccc(NC(=O)Cc2cccc(NC(=O)C3CCN(C(=O)C4CCCC4)CC3)c2)cc1 | -11%
74 | CCOC(=O)NC1(NC2CCCCC2)Oc2ccccc2O1 | -12%
75 | Cc1ccc(Cl)cc1NC(=O)CC(O)(C(F)(F)F)C(F)(F)F | -5%
76 | CC(=O)c1ccc(N2CCN(C(C)C(=O)Nc3ccc4c(c3)OCCO4)CC2)cc1 (centres undefined) | -20%
77 | O=c1[nH]c(-c2ccc(Cl)cc2)cs1 | -9%
78 | CCc1cc(=O)oc2cc(C)cc(OC(=O)c3ccco3)c12 | 5%
79 | O=C(COc1ccccc1)N(Cc1cccnc1)c1nc2c(F)cc(F)cc2s1 | 5%
80 | COc1ccc(NC(=O)CN(C)C(=O)CCc2nc3cc(S(=O)(=O)N4CCOCC4)ccc3n2C)cc1 | -7%
81 | Cn1c(C(=O)O)c(CC(=O)Nc2ccc3c(c2)OCCO3)c2ccccc21 | -11%
82 | O=C(c1c2c(nc3ccccc13)C(=O)N(C1CCCCC1)C2)N1CCN(c2ccc(F)cc2)CC1 | 20%
83 | CC(=O)c1cccc(-n2nnnc2SCC(=O)NNC(=O)C2CCCCC2)c1 | -8%
84 | CC(=O)Nc1cccc(-c2nnc(SCC(=O)c3cc([N+](=O)[O-])ccc3Cl)o2)c1 | 13%
85 | COc1ccc(C(C)=O)cc1CS(=O)(=O)CC(=O)NCCc1c[nH]c2ccccc12 | 12%
86 | Cc1ccccc1Cn1cc(CCC(=O)N2CCOCC2)c2ccccc21 | -2%
87 | Cc1ccccc1NC(=O)Cc1cccs1 | -8%
88 | COc1ccccc1CC(=O)N1CCCC(CCC(=O)NCc2ccccc2F)C1 (centres undefined) | -5%
89 | COC(C/C=C/[C@H](O)COCc1ccccc1)OC | 7%
90 | COc1ccc(CN(C)C(=O)C2CC(=O)N(c3ccc4c(c3)OCCO4)C2)c(OC)c1 (centres undefined) | 0%
91 | CCCn1c(CCc2ccccc2)n[nH]c1=S | -9%
92 | COc1ccccc1C(=O)N/C(=C/c1ccc(Br)cc1)C(=O)NCCO | -5%
93 | CC(=O)NCCc1nc2ccccc2n1Cc1cc(C)ccc1C | 6%
94 | Cn1c(SCC(=O)NC2CCCCC2)nnc1-c1ccccc1F | 6%
95 | CCc1ccc(N(C(=O)c2csnn2)C(C(=O)NC(C)(C)CC)c2ccccn2)cc1 (centres undefined) | -19%
96 | COC(=O)COc1ccc(S(=O)(=O)NCCC2=CCCCC2)cc1C | -1%
97 | COc1ccc(/C=N/NC(=O)Nc2cccc3nsnc23)cc1OC | -13%
98 | Cc1ccc(C(=O)Nc2ccncc2)c(C)c1 | 0%
99 | COc1ccc(CNC(=O)C2CCCN2C(=O)NC2CCCCC2)cc1 (centres undefined) | 3%
100 | COc1ccc(NC(=O)CC2C(=O)N(c3ccc(C)cc3)C(=O)N2Cc2ccc(C)cc2)cc1 (centres undefined) | ?

(listing goes on)
item | smiles | VDR inhibitor
101 | CCOc1ccc(S(=O)(=O)N2CCN(Cc3ccc4c(c3)OCO4)CC2)cc1OCC | 10%
102 | CC1(C)C(=O)OC(c2ccco2)C(C)(C)C1=O (centres undefined) | 0%
103 | CC1=C(/C=C/C(=O)O)C(C)(C)CCC1 | -19%
104 | CC1CCN(S(=O)(=O)c2ccccc2[N+](=O)[O-])CC1 | -7%
105 | COc1cccc(CN(C)C(=O)C(CCSC)NS(=O)(=O)c2ccc3c(c2)OCCO3)c1OC (centres undefined) | 20%
106 | CCOc1ccc(-n2c(=O)c3sccc3n(CC(=O)NCC3CCCO3)c2=O)cc1 (centres undefined) | -6%
107 | Cn1c(=O)c2c(ncn2CC(=O)N/N=C/C(Br)=C/c2ccccc2)n(C)c1=O | -9%
108 | COc1ccc2cc3cc(C(=O)NCCCN4CCC(C)CC4)oc3nc2c1 | -23%
109 | O=C(O)/C=C/C(=O)NNC(=O)c1cc(-c2ccccc2)n[nH]1 | ?
110 | CO/N=C/CC(=O)c1ccc([N+](=O)[O-])c(CS(=O)(=O)c2ccc(Cl)cc2)c1 | -24%
111 | c1ccc(C2COC(c3cccs3)=N2)cc1 (centres undefined) | -19%
112 | CS(=O)(=O)Cc1ccc(C(=O)NC2CCSc3ccccc32)cc1 (centres undefined) | -22%
113 | CS(=O)(=O)N(Cc1ccc(C(=O)NCCSCc2ccco2)cc1)c1ccccc1 | 1%
114 | C=CCNC(=S)/N=c1/ccccn1C | 3%
115 | COc1ccc2c(CC(=O)Nc3ccc(C)cc3)coc2c1 | 11%
116 | Cc1c(NC(=O)C(C)Sc2nc(N)cc(=O)[nH]2)c(=O)n(-c2ccccc2)n1C (centres undefined) | 21%
117 | Cn1c(Cn2c(=O)sc3ccccc32)nnc1SCC(=O)NCc1ccc2c(c1)OCO2 | ?
118 | COc1ccc(CN2CCC(=O)N(CCO)CC2)cc1OC | 5%
119 | C=CCNc1nnc(Cc2ccc(F)cc2)c(=O)[nH]1 | 17%
120 | O=Cc1c(NCCc2ccc(F)cc2)c2ccccc2[nH]c1=O | -19%
121 | COc1ccc(N(CC(=O)Nc2cc(Cl)ccc2C)S(=O)(=O)c2c(C)n[nH]c2C)cc1 | -27%
122 | CC(=O)OC(C[N+]1(C)CCCCCC1)c1ccccc1 (centres undefined) | -13%
123 | O=C(Nc1cccc(S(=O)(=O)N2CCOCC2)c1)c1ccc(Cl)nc1 | -3%
